# Screens: PubChem BioAssay, National Center for Advancing Translational Sciences (NCATS)
# Sfp PPTase inh – inhibitors of Bacillus subtilis Sfp phosphopantetheinyl transferase; Potency, µM, without a hit: max response, negative = inhibition, hits mostly inhibitors; Biochemical Sfp PPTase activity, qHTS; Q9F4F7; hit rate 3.5% among 310,000; active = well fitted inhibition curve with a large enough effect; inconclusive = small, poorly fitted or top-dose-only effect, or another doubt; inactive = no such curve, though single readings can be large or run the other way;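 note: the enzyme is Sfp with the accession as filed and its product quenches rhodamine fluorescence; potency is the fitted concentration of half-maximal effect; 0% = enzyme reaction without inhibitor and -100% = no enzyme wells; top concentration of the series not given in the record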
#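 Sfp 15 nM + cpd, 15 min RT; start w/ rhodamine-CoA 5 uM, BHQ-2-YbbR 12.5 uM (final); 50 mM Hepes pH 7.6, 10 mM MgCl2, 0.01% NP-40, 0.01% BSA; read 525/598 nm at 0 and 30 min.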
# Menin-MLL FL inh – displaces fluorescein MLL peptide from human menin. Fluorescence polarization, fluorescein-MLL peptide displacement from menin. FP activity change, % at 61.4 µM. 290,000 tested, under 10 active; inconclusive = falling polarisation curve, or a change in total fluorescence; inactive = total fluorescence flat and polarisation flat or rising; no compound was filed as active; the % refers to the polarisation; negative = inhibition;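 note: % of control where 0% means no effect; inhibitors lower the polarisation; unlabelled MLL peptide was the positive control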
# Numbers without * were called inactive; u = inconclusive; x = no result given; & = joins results of further samples; [ ] = remark or other dose. Only part of the results is shown. The share of hits here may be higher or lower than overall.
No.	smiles	Sfp PPTase inh	Menin-MLL FL inh
1	NCC(O)COc1cccc2ccccc12 (stereo not drawn)	22%	x
2	O=C(Nc1ccccc1)C12CC1/C(=N\O)c1ccccc1O2 (stereo not drawn)	2%	x
3	O=c1nc2ccccc2c2n1CC(CN1CCN(c3ccccc3)CC1)N2 (stereo not drawn)	24%	x
4	C[C@H](N)CCCP(=O)(O)O	u	x
5	CC(=O)OCOC(=O)CN(CC(=O)OCOC(C)=O)c1ccccc1OCCOc1ccccc1N(CC(=O)OCOC(C)=O)CC(=O)OCOC(C)=O	89µM*	x
6	COc1ccc(-c2cc(=O)c3c(O)cc(O)c(-c4cc(-c5cc(=O)c6c(O)cc(OC)cc6o5)ccc4OC)c3o2)cc1	2%	x
7	N#C/C(=C/c1ccc(O)c(O)c1)C(=O)OC/C=C/c1ccccc1	20%	x
8	O=C1C(Cl)=C(NCCN2CCOCC2)C(=O)c2ncccc21	-2%&-6%	x
9	CC(C)C[C@H](NC(=O)[C@H](CCC(N)=O)NC(=O)[C@H](CCCCN)NC(=O)[C@H](CCC(N)=O)NC(=O)[C@@H](N)CCC(=O)O)C(=O)N[C@@H](CCC(N)=O)C(=O)O	14%	x
10	CNC1C(O)C(O[C@H]2C(O)[C@@H](OC3OC(CN)=CCC3N)[C@H](N)C[C@@H]2N)OC[C@]1(C)O (stereo partly drawn)	1%	x
11	NCCC[C@@H](N)C(=O)O	u	x
12	CC(C)C[C@@H](C=O)NC(=O)[C@H](CC(C)C)NC(=O)[C@H](CC(C)C)NC(=O)OCc1ccccc1	-9%	x
13	CN1C[C@@H]2C[C@H]1CN2c1cc2c(cc1F)c(=O)c(C(=O)O)cn2C1CC1	11%	x
14	CNc1ncnc2c1ncn2[C@H]1C[C@H](O)[C@@H](CO)O1	18%	x
15	C=C1CC[C@H](O)C/C1=C/C=C1\CCC[C@]2(C)C([C@H](C)CC[C@@H](O)C(C)(C)O)CC[C@@H]12 (stereo partly drawn)	28%	x

# An excerpt from above in order of molar mass, falling:
No.	smiles	Sfp PPTase inh	Menin-MLL FL inh
9	CC(C)C[C@H](NC(=O)[C@H](CCC(N)=O)NC(=O)[C@H](CCCCN)NC(=O)[C@H](CCC(N)=O)NC(=O)[C@@H](N)CCC(=O)O)C(=O)N[C@@H](CCC(N)=O)C(=O)O	14%	x
3	O=c1nc2ccccc2c2n1CC(CN1CCN(c3ccccc3)CC1)N2 (stereo not drawn)	24%	x
1	NCC(O)COc1cccc2ccccc12 (stereo not drawn)	22%	x

# The list continues.
No.	smiles	Sfp PPTase inh	Menin-MLL FL inh
16	Nc1ccnc2c1ncn2[C@@H]1O[C@H](CO)[C@@H](O)[C@H]1O	15%	x
17	CCCCC/C=C\C\C=C/C=C/C=C/[C@@H](SC[C@H](NC(=O)CC[C@H](N)C(=O)O)C(=O)NCC(=O)O)[C@@H](O)CCCC(=O)O	7%	x
18	CC(C)C(N)C(=O)O (stereo not drawn)	u	x
19	CC(N)(C(=O)O)c1ccc(-c2nn[nH]n2)cc1 (stereo not drawn)	35µM*	x
20	C[C@@H](Cc1ccccc1)Nc1ncnc2c1ncn2[C@@H]1O[C@H](CO)[C@@H](O)[C@H]1O	22%	x
21	Nc1nc(SCc2ccc([N+](=O)[O-])cc2)c2ncn([C@@H]3O[C@H](CO)[C@@H](O)[C@H]3O)c2n1	4%	x
22	CCCC(=O)NCCc1c(I)[nH]c2ccc(OC)cc12	-5%	x
23	C[C@H](N)CCP(=O)(O)O	2%	x
24	Cc1o[nH]c(=O)c1CCC(N)C(=O)O (stereo not drawn)	4%	x
25	Cn1cnc2c(ncn2[C@@H]2O[C@H](CO)[C@@H](O)[C@H]2O)c1=N	22%	x
26	CC(C)[C@H](O)CC[C@@H](C)C1CC[C@H]2C3CC=C4C[C@@H](O)CC[C@]4(C)C3CC[C@]12C (stereo partly drawn)	-1%&3%	x
27	CC(C)[C@@H]1NC(=O)[C@H](Cc2ccccc2)NC(=O)[C@@H](CC(=O)O)NC(=O)CNC(=O)[C@H](CCCNC(=N)N)NC1=O	16%	x
28	CN[C@H]1[C@H](O)[C@@H](O[C@@H]2[C@H](O)[C@@H](O[C@H]3OC(CN)=CC[C@H]3N)[C@@H](N)C[C@H]2N)OC[C@@]1(C)O	-6%	x
29	O=C[C@@H]1CCCN1C(=O)[C@@H]1CCCN1C(=O)OCc1ccccc1	56µM*	x
30	Nc1nc2c(ncn2[C@@H]2O[C@H](COP(=O)(O)OP(=O)(O)OP(=O)(O)O)[C@@H](O)C2O)c(=O)[nH]1 (stereo partly drawn)	u	x
31	O=C1CC[C@H](C(=O)O)N1	10%	x
32	CN1CC(O)C2=CC(=O)C(=O)C=C21 (stereo not drawn)	5.6µM*	x
33	Nc1ncnc2c1ncn2[C@@H]1O[C@H](COP(=O)(O)CP(=O)(O)OP(=O)(O)O)[C@@H](O)[C@H]1O	56µM*	x
34	Nc1ccccc1C(=O)C[C@@H](N)C(=O)O	1%	x
35	CNc1ncnc2c1ncn2[C@H]1C[C@H](OP(=O)(O)O)[C@@H](COP(=O)(O)O)O1	x	2.6
36	C[C@H]1CC2[C@@H]3CCC4=CC(=O)C=C[C@]4(C)[C@@]3(Cl)[C@@H](O)C[C@]2(C)[C@@]1(O)C(=O)CO (stereo partly drawn)	x	-0.9
37	Oc1ccc(Cn2cc[nH]c2=S)cc1	x	2.8
38	O=C(Cc1ccc(Cl)c(Cl)c1)OCCN1CCCC1	x	3.2
39	Nc1ncnc2c1ncn2[C@@H]1O[C@H](C(=O)NC2CC2)[C@H](O)[C@H]1O	x	3.6
40	O=C(O)[C@H]1NCCC[C@H]1C(=O)O	x	3.4
41	CCn1c(=O)c2[nH]c(-c3ccccc3)nc2n(CC)c1=O	x	6.8
42	Cn1ccnc1	x	-2.8
43	N=c1ccn2c(n1)O[C@H]1[C@@H](O)[C@@H](CO)O[C@H]12	x	-3.1
44	OC[C@H]1O[C@@H](n2cnc3c(N[C@H]4CC5CCC4C5)ncnc32)[C@H](O)[C@@H]1O (stereo partly drawn)	x	1.2
45	C[C@@H](Oc1ccc(Oc2cnc3ccc(Cl)cc3n2)cc1)C(=O)O	x	14

# In a second layout: results already given.
(44) OC[C@H]1O[C@@H](n2cnc3c(N[C@H]4CC5CCC4C5)ncnc32)[C@H](O)[C@@H]1O (stereo partly drawn)
  Sfp PPTase inh: x
  Menin-MLL FL inh: 1.2
(35) CNc1ncnc2c1ncn2[C@H]1C[C@H](OP(=O)(O)O)[C@@H](COP(=O)(O)O)O1
  Sfp PPTase inh: x
  Menin-MLL FL inh: 2.6

# The results go on:
No.	smiles	Sfp PPTase inh	Menin-MLL FL inh
46	CC[C@H](C)C(=O)O[C@H]1CCC=C2C=C[C@H](C)[C@H](CC[C@@H]3C[C@H](O)CC(=O)O3)C21 (stereo partly drawn)	x	8.3
47	NC(N)=N[C@@H](CCC(=O)O)C(=O)O	x	6.9
48	C=CC[C@H](N)C(=O)O	x	0.8
49	CC(=O)NCCc1ccc(O)c(O)c1	x	2.2
50	CC(N)=O	x	0.7
51	CC(C)(C)c1onc(OCP(=O)(O)O)c1CC(N)C(=O)O (stereo not drawn)	x	4.7
52	CC(N)(Cc1ccc(O)cc1)C(=O)O (stereo not drawn)	x	7.2
53	CCCCN1CCC(n2c(=O)[nH]c3ccccc32)CC1	x	-2.4
54	Cc1cn([C@H]2C[C@@H](N=[N+]=[N-])[C@@H](CO)O2)c(=O)[nH]c1=O	x	4.5
55	COC(=O)[C@@H]1O[C@@H](c2c(OC)c(OC)c(C)c(OC)c2OC)[C@H](C)[C@@H](O)[C@@H]1C	16%	-0.1[11.7 µM]
56	COC[C@@H](O)[C@@H](OC)[C@H](OC)[C@H](Cc1c(OC)cc(OC)cc1OC)OC	20%	1.8
57	COc1cccc(Cn2c(=O)c(-c3cn(C)c4ccccc34)nc3cnc(OC)nc32)c1	5%	3.9
58	CN(C)C(=O)c1ccc(-c2cncnc2-n2ccnc2)cc1	6%	-1.2
59	COC(=O)C/C=C\[C@@H](C)[C@@H](/C=N\O[C@@H](C)c1cn([C@H](CO)Cc2ccccc2)nn1)OC	22%&22%	4.6&-9.3[11.7 µM]
60	CCOC(c1cc(OC)cc([N+](=O)[O-])c1OC)C(C)C(OC)[C@@H](C)/C=C/CC(=O)OC (stereo partly drawn)	3%	-8.7[11.7 µM]

# With a hit mark in Sfp PPTase inh, of those listed so far:
No.	smiles	Sfp PPTase inh	Menin-MLL FL inh
5	CC(=O)OCOC(=O)CN(CC(=O)OCOC(C)=O)c1ccccc1OCCOc1ccccc1N(CC(=O)OCOC(C)=O)CC(=O)OCOC(C)=O	89µM*	x
19	CC(N)(C(=O)O)c1ccc(-c2nn[nH]n2)cc1 (stereo not drawn)	35µM*	x
29	O=C[C@@H]1CCCN1C(=O)[C@@H]1CCCN1C(=O)OCc1ccccc1	56µM*	x
32	CN1CC(O)C2=CC(=O)C(=O)C=C21 (stereo not drawn)	5.6µM*	x
33	Nc1ncnc2c1ncn2[C@@H]1O[C@H](COP(=O)(O)CP(=O)(O)OP(=O)(O)O)[C@@H](O)[C@H]1O	56µM*	x

# Later entries:
No.	smiles	Sfp PPTase inh	Menin-MLL FL inh
61	Cc1cc(=O)[nH]c(S)c1C#N	2.2µM*	-0.4
62	O=c1c(-c2ccc(F)cc2)nc2cncnc2n1Cc1ccccc1	-4%	3.3
63	COC(C(C)/C=C/CC(=O)OCCCc1ccccc1)C1CCCCC1 (stereo not drawn)	6%	-7.3[11.7 µM]
64	CC[C@H](C)[C@H](NC(=O)[C@H](CC(=O)O)NC(=O)[C@H](CC(N)=O)NC(=O)[C@@H](NC(=O)[C@H](CCCNC(=N)N)NC(=O)[C@@H](NC(=O)[C@@H](NC(=O)[C@@H](NC(=O)[C@@H](NC(=O)[C@H](CCCCN)NC(=O)[C@@H](NC(=O)[C@H](CC(C)C)NC(=O)[C@@H](NC(=O)[C@H](CCCCN)NC(=O)[C@@H](NC(=O)[C@H](CC(=O)O)NC(=O)[C@H](CC(=O)O)NC(=O)[C@H](CCC(N)=O)NC(=O)[C@@H](NC(=O)[C@H](CCCCN)NC(=O)[C@H](CCC(N)=O)NC(=O)[C@@H](NC(=O)[C@@H]1CCCN1C(=O)[C@@H](N)C(C)C)[C@@H](C)CC)C(C)C)[C@@H](C)O)[C@@H](C)O)[C@@H](C)CC)[C@@H](C)O)[C@@H](C)CC)C(C)C)[C@@H](C)O)[C@@H](C)CC)C(=O)N[C@@H](CO)C(=O)N[C@@H](Cc1cnc[nH]1)C(=O)N[C@H](C(=O)N[C@@H](CCC(N)=O)C(=O)N[C@@H](CO)C(=O)N[C@H](C(=O)N[C@@H](CO)C(=O)N[C@@H](CO)C(=O)N[C@@H](CCCCN)C(=O)N[C@@H](CCC(N)=O)C(=O)N[C@@H](CCCCN)C(=O)O)C(C)C)[C@@H](C)O	2%	0.8
65	O=C(c1csnn1)N1CCC2(CC1)CN(c1cccc(-c3ccccc3)c1)C2	-19%	-1.2
66	Cc1nc(NCc2ccccc2)c2nc(-c3ccccc3)n(CCN3CCOCC3)c2n1	7%	2.1
67	O=C(O)CC(O)CC(O)/C=C/c1c(C2CC2)nc2ccccc2c1-c1ccc(F)cc1 (stereo not drawn)	10%	-5.4
68	COc1ccccc1CN1CC2(CCN(C(=O)c3cnccn3)CC2)C1	20%	-3.2
69	COC(=O)c1ccc(C(NC(=O)OCc2ccccc2)/C(=C/[C@@H](C)C(=O)N(C)C)c2cccnc2)cc1 (stereo partly drawn)	20%	1.0
70	O=C(c1ccco1)N1CCC2(CCCN(Cc3ccccc3)C2)CC1	-6%	16
71	CC(C)C[C@@H](CC(=O)N[C@@H](CCC(=O)O)CC(=O)O)NC(=O)[C@@H]1CNCC[C@H]1NC(=O)C[C@@H](NC(=O)C[C@H](CO)NC(=O)[C@@H]1CNCC[C@H]1N)C(C)C	-4%	-0.8
72	Cc1nc(NCCO)c2nc(-c3ccccc3)n(CC3CCN(C)CC3)c2n1	20%	-7.8
73	COC(=O)NC(c1cccc(C)c1)C(C(C)=O)C(=O)OC (stereo not drawn)	9%	-7.0[11.7 µM]
74	COCCNc1nc(-c2ccccc2OC)nc2ccccc12	-16%	5.4
75	CC(=O)OCC1OC(n2c(Br)nc3c(=O)[nH]c(N)nc32)C(OC(C)=O)C1OC(C)=O (stereo not drawn)	0%	-1.7
76	CC(=O)OCC1OC(C#Cc2ccc(F)cc2F)C=CC1OC(C)=O (stereo not drawn)	-5%	-4.7[11.7 µM]
